Calb FLC: affects C. albicans growth with fluconazole. C. albicans CaCi-2 (fluconazole-resistant clinical isolate) + fluconazole, Alamar Blue growth, 48 h. growth inhibition, % (no concentration beside the values). 300,000 compounds, 0.57% hits. AID 1979;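 active = most replicates above 75%; inconclusive = exactly half above 75%; inactive = most below 75%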;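 also: all wells also contain fluconazole at 8 µg/ml as a sub-toxic cotreatment; 0% = median of DMSO wells and 100% = median of geldanamycin control wells; wells of about 8 µL received 7.5 nL stock; the first replicate is given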
MLL AF4-AF9 inh: blocks AF4 peptide binding to human AF9. 350,000 compounds, 0.47% hits. AID 651704. AlphaScreen, biotin-AF4 peptide binding to FLAG-AF9. inhibition, % at 10 µM;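 active = every replicate reaching a set inhibition limit, whatever the replicate mean, cut at about 25% in these data; inconclusive = mean inhibition reaches that limit but some replicates miss it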;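 also: 0% = plate neutral control median and 100% = total signal loss; the record names both 10 and 1 µM as test concentration; the first replicate is given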
Target sequence (P42568 whole entry, looked up): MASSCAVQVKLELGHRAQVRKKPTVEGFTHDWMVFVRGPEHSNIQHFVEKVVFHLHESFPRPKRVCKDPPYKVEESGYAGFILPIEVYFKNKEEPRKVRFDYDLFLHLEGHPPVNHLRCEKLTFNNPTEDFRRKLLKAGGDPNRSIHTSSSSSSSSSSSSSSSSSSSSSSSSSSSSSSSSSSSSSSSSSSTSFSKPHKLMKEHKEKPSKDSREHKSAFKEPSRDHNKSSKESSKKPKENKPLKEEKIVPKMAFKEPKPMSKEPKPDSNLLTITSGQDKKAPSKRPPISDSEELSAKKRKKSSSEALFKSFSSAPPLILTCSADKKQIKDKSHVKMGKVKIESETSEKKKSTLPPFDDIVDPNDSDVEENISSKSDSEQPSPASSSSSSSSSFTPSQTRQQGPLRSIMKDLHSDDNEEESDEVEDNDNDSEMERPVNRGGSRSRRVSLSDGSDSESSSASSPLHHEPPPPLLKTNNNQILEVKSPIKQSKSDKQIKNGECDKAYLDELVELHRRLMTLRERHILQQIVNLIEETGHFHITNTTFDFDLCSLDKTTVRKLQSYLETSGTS
Vif A3G: HIV-1 Vif–A3G interaction blockers – biochemical, TR-FRET, GST-Vif 1-94, biotin-A3G peptide, dose response retest, primary screen (AID 1117319) | one-dose inhibition, %; IC50 in µM for titrated hits | 260,000 compounds, 0.57% hits | TR-FRET GST-Vif / biotin-A3G peptide binding; higher % means a stronger effect; test concentration not given here; strong numbers were not always called active;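 active = above the screen mean plus three standard deviations and confirmed in dose response; inconclusive = results disagree or hit not tested in dose response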;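 also: Vif residues 1-94 fused to GST binding biotinylated APOBEC3G peptide 110-148; 0% = full assay without inhibitor and 100% = GST in place of GST-Vif; retest series ran down from 100 µM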
Ecoli rRNA inh: selective bacterial rRNA inhibition in E. coli; E. coli WT GFP vs humanized-ribosome RFP mutants, fluorescence, 24 h; hits give low values; DMSO median 0, no signal -100; GFP signal change (wild-type ribosome), % (concentration not given with the values); 350,000 compounds, 1.6% hits;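 active = significant combined selectivity score with lowered wild-type GFP, culture density cut under 30%, mutant RFP and density less affected; inactive = any of these conditions unmet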; also: one replicate is shown; some compounds called inactive have numbers as strong as hits
RanGTP-Impb inh: disruptors of Ran-importin-beta complex formation – biochemical, FRET, CFP-Ran, YFP-importin-beta, homogeneous, primary screen. cell-free CFP-Ran/YFP-importin-beta FRET ratio. inhibition, % (no concentration beside the values). AID 2216. 300,000 compounds, 1.1% hits;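 active = most replicates above 15%; inconclusive = exactly half above 15%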;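 also: 0% = DMSO wells and 100% = Ran loaded with GDP instead of GTP; wells of about 40 µL received 100 nL stock; the first replicate is given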
Bfl-1 A1 inh: inhibitors of the anti-apoptotic protein A1, read as caspase activation. MEF A1-2A-BIM cells, Caspase-Glo 3/7 luminescence, 3 h; percent of clofoctol response, vehicle zero. AID 2462. 330,000 compounds, 0.066% hits. caspase activation, % (concentration not given with the values);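 active = over half of replicate activation scores above 10%, or exactly half above 10 with the replicate mean above 10; inconclusive = replicate mean below 10 yet half the replicates above 10; inactive = over half of replicates below 10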;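 also: wells of about 30 µL received 50 nL stock; many hits fall short of the cut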
Beta apoptosis: beta cell apoptosis inhibition; 300,000 compounds, 0.8% hits; INS-1E cytokine-induced death, ATP luminescence, 48 h; percent of positive-control rescue, neutral wells zero; AID 435005; protection from apoptosis, % (test concentration not listed);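 active = all replicates at 75% or more, or half of them and the mean; inconclusive = half reach 75% but not the mean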;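 also: 0% = cytokine-treated negative control wells and 100% = positive control rescue; higher means more ATP so stronger rescue from cytokine killing; wells of about 40 µL received 100 nL stock; the first replicate is given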
T cruzi inh: T. cruzi replication inhibition; T. cruzi beta-gal in NIH3T3, luminescence, 90 h; 300,000 compounds, 1.4% hits; AID 1885; inhibition, % (test concentration not listed);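 active = mean inhibition across valid replicates above about 55%, limit read from the data; inconclusive = mean below that limit but half or more replicates reach it; inactive = mean below it, under half of replicates reach it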;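 also: signal also drops with host cell toxicity which is not excluded here; 0% = plate median of DMSO wells and 100% = zero luminescence signal; higher percent means less beta-gal luminescence so fewer parasites; stock transfer was 50 nL into about 50 µL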
Ecoli rRNA inh OD600: recorded beside Ecoli rRNA inh, whose call it bears; OD600 change, %; measured here: OD600 growth;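 optical density of the mix in the first replicate; 0 = DMSO median and -100 = no signal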
Ecoli rRNA inh RFP: second read-out of Ecoli rRNA inh, no call of its own (marks repeat the call); RFP signal change, %; measured here: RFP humanized mutant strains;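 first replicate; 0 = DMSO median and -100 = no signal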
Numbers without * were called inactive; ? = inconclusive; / = not tested or not shown; & = joins results of further samples.

1) COc1ccc(CN(C)C(=O)c2cnc(OC)cc2C(F)(F)F)c(OC)c1
2) Cc1ccccc1C(=O)Nc1ccc(Br)cn1
3) CNC(=O)C(=O)NCCCN1CCOCC1
4) Cc1ccc2c(c1)cc(CN(CCc1ccccc1)C(=O)N1CCOCC1)c1nnnn12
5) Cn1c(CNC(=O)OC(C)(C)C)nnc1SCc1c(Cl)cccc1Cl
6) Cc1ccc(C)c(N2CCN(C(=O)c3ccc(CS(=O)(=O)c4ccccc4C)o3)CC2)c1
7) Cc1nn(CC(=O)N/N=C/c2ccc(F)cc2)c(C)c1[N+](=O)[O-]
8) Cc1ccc(CNC(=O)C2CCN(S(=O)(=O)N3CCCCC3)CC2)cc1

Screen / compound no.,1,2,3,4,5,6,7,8
Calb FLC,1,-17,-20,-14,0,19,-5,-3
MLL AF4-AF9 inh,/,/,-2.1,/,1.1,/,-6.4,-1.2
Vif A3G,-1%,1%,4%,-2%,/,-3%&-3%,-7%,7%
Ecoli rRNA inh,7,/,14,/,1,/,11,10
Ecoli rRNA inh OD600,9,/,9,/,-13,/,10,9
Ecoli rRNA inh RFP,-1.1,/,-1.8,/,0.6,/,-2.6,-0.8
RanGTP-Impb inh,-3.3,-1.4,-2.1,-1.3,?,2.5,1.0,-0.6
Bfl-1 A1 inh,1.4,-5.9,0.0,0.7,-0.1,0.1,0.7,0.9
Beta apoptosis,-6,3,-1,9,-7,8,-3,-2
T cruzi inh,/,-7,6,20,22,2,2,-2

9) Cc1cc(C)cc(C(=O)NC(CC(N)=O)c2ccc(N3CCC(N4CCCCC4)CC3)c([N+](=O)[O-])c2)c1 (stereo unspecified)
10) Cc1c(NS(=O)(=O)c2cccc(C(=O)OCC(=O)N(C)C3CCCCC3)c2)c(=O)n(-c2ccccc2)n1C
11) Cc1ccc(OCCCC(=O)NCc2ccco2)cc1
12) COc1ccc(CCNC(=O)c2nnc(Cc3c(F)cccc3Cl)o2)cc1OC
13) O=C(Nc1cccc(Cl)c1N1CCOCC1)c1ccc2c(c1)OCCO2
14) CC(C)N(C(C)C)S(=O)(=O)c1ccc(NC(=O)c2cnccn2)cc1
15) COc1cccc(NC(=S)/C(=C(\[O-])c2ccc(OC(F)F)cc2)[n+]2ccccc2)c1
16) CCCc1ccc(OCCNC(=O)c2ccccc2Br)cc1

Screen / compound no.,9,10,11,12,13,14,15,16
Calb FLC,-11,55,-12,1,32,-2,-23,-15
MLL AF4-AF9 inh,-0.9,-3.9,/,/,2.4,-0.5,3.6,-5.8
Vif A3G,/,-5%,10%,-12%,-1%,-3%,12%,/
Ecoli rRNA inh,9,-5,/,/,-33,-5,3,-12
Ecoli rRNA inh OD600,23,-12,/,/,-32,-1,12,-5
Ecoli rRNA inh RFP,-3.8,0.9,/,/,-5.7,-0.2,-2.8,-2.7
RanGTP-Impb inh,-1.7,1.2,-0.9,8.2,?,-1.1,2.9,0.9
Bfl-1 A1 inh,0.3,0.8,-0.3,0.0,-0.6,0.3,-0.5,1.4
Beta apoptosis,4,-7,-4,-3,4,-4,-1,1
T cruzi inh,-9,5,-1,16,-1,-6,0,-5

17) C=CCNC(=O)CN1C(=O)c2cccc3cccc1c23
18) O=C1Nc2ccccc2C12OCCCO2
19) CCOC(=O)NC1c2ccccc2Oc2ccccc21
20) CCOC(=O)c1c(CN(CC)CC)n(C)c2cc(Br)c(O)cc12
21) CCOC(=O)c1cnc2ccc(C)cc2c1Sc1ccccc1
22) Nc1c(Cl)ncnc1N/N=C/c1ccnc2ccccc12
23) COc1ccc(N(C(=O)c2snc(C(N)=O)c2N)C(C(=O)NC2CCCC2)c2ccc3ncccc3c2)cc1 (stereo unspecified)
24) CCn1c(Cc2ccccc2)nnc1SCC(=O)Nc1ccccc1N1CCOCC1

Screen / compound no.,17,18,19,20,21,22,23,24
Calb FLC,-5,1,4,0,-3,-2,-2,21
MLL AF4-AF9 inh,0.3,/,-33,3.7,/,/,-1.6,/
Vif A3G,-1%,5%,-12%,19%,-4%,?,/,4%
Ecoli rRNA inh,16,/,5,6,/,/,7,/
Ecoli rRNA inh OD600,8,/,1,-10,/,/,6,/
Ecoli rRNA inh RFP,2.6,/,-4.7,-13,/,/,-1.1,/
RanGTP-Impb inh,7.1,4.2,2.9,?,4.1,-1.2,-2.3,1.7
Bfl-1 A1 inh,1.1,0.5,1.0,0.1,2.4,-0.9,0.0,-0.3
Beta apoptosis,-7,-6,-4,1,-18,4,10,-4
T cruzi inh,-1,-1,1,3,8,-14,14,6

25) CC(=O)c1cccc(NS(=O)(=O)c2ccc(N/C=C\C(=O)c3ccc(F)cc3)cc2)c1
26) O=C(NCC(=O)N1CCN(S(=O)(=O)c2ccccc2)CC1)c1ccc2ccccc2c1
27) COc1ccc2[nH]cc(C(=O)CN3CC(C)CC(C)C3)c2c1 (stereo unspecified)
28) N#Cc1c2ccc(O)cc2n2ccccc12
29) CC1CCCCN1S(=O)(=O)c1cccc2nonc12 (stereo unspecified)
30) COc1ccccc1N1CCN(C2CCCN(C(=O)CCN3CCCCO3)C2)CC1 (stereo unspecified)
31) Cn1c(=O)n(C)c2cc([N+](=O)[O-])c(N3CCN(C(=O)C(C)(C)C)CC3)cc21
32) C=CCN(C(=O)CSc1nc2ccsc2c(=O)n1Cc1ccccn1)c1ccccc1

Screen / compound no.,25,26,27,28,29,30,31,32
Calb FLC,-35,/,-5,-1,6,-20,-12,1
MLL AF4-AF9 inh,/,0.4,4.4,-2.4,1.9,2.9,0.9,2.1
Vif A3G,-9%&-6%,/,-5%,-4%,/,4%,0%,-16%
Ecoli rRNA inh,/,-22,4,-28,2,9,-23*,-22
Ecoli rRNA inh OD600,/,-26,8,-48,5,6,-16*,-20
Ecoli rRNA inh RFP,/,-1.8,0.7,-7.6,1.9,1.3,-3.0*,19
RanGTP-Impb inh,6.4,-0.8,-4.3,19*,0.9,1.1,-2.8,6.2
Bfl-1 A1 inh,-0.5,-0.5,1.5,-1.6,-0.8,0.4,0.1,0.7
Beta apoptosis,98*,-5,-7,5,-11,-2,-6,2
T cruzi inh,13,-1,-3,65*,-15,4,-7,11

33) COCc1[nH][nH]c(=O)c1C=Nc1ccc(OC(F)(F)F)cc1
34) COc1cccc(/C=N/NC(=O)CN2CC(c3ccccc3)CC2=O)c1O (stereo unspecified)
35) O=C1C2C3C=CC(C2C(=O)N1CCCO)C1C2C(=O)N(CCCO)C(=O)C2C31 (stereo unspecified)
36) O=C(Cn1c(=O)oc2cc(S(=O)(=O)N3CCOCC3)ccc21)N1CCc2ccccc2C1
37) Cc1cc(N2CCOCC2)nc2ccc(NC(=O)CCC(=O)N3CCN(c4ccccc4F)CC3)cc12
38) COc1ccccc1C(=O)NNC(=S)NC(=O)c1sc2ccccc2c1Cl
39) O=C(NCc1ccccc1)c1ccc(=O)oc1
40) Cc1ccc(NC(=O)CCc2c(C)nc3ncnn3c2C)nc1

Screen / compound no.,33,34,35,36,37,38,39,40
Calb FLC,-11,-4,0,/,1,-8,9,-5
MLL AF4-AF9 inh,-12,/,/,4.1,0.4,/,-0.9,/
Vif A3G,-3%,8%,-2%,-1%,/,/,-3%,-2%
Ecoli rRNA inh,5,/,/,9,-10,/,7,/
Ecoli rRNA inh OD600,-6,/,/,14,-12,/,-10,/
Ecoli rRNA inh RFP,2.3,/,/,-0.7,1.9,/,0.3,/
RanGTP-Impb inh,0.6,2.7,6.4,/,0.6,?,4.4,2.1
Bfl-1 A1 inh,0.2,1.0,0.0,0.3,1.0,0.2,-0.2,1.0
Beta apoptosis,2,77*,-1,/,-3,0,-3,1
T cruzi inh,2,3,-3,/,7,28,-8,-3

41) CCN(CC)C(=O)c1csc(Nc2ccc(C)cc2)n1
42) Cc1nc2ccc(C(=O)N3CCCC(CO)(Cc4ccc(F)cc4F)C3)cc2nc1C (stereo unspecified)
43) CCN(CC)S(=O)(=O)c1ccc(OC)c(NC(=O)Cc2cccs2)c1
44) O=C(CNC(=S)N(Cc1ccccc1Cl)C1CCCC1)NCCCN1CCOCC1
45) CC(=O)n1nc(-c2ccccc2)cc1-c1ccccc1
46) Cc1[nH]c(=O)[nH]c(=O)c1S(=O)(=O)N1CCC(C(=O)N2CCN(Cc3ccccc3)CC2)CC1
47) C=CCN=c1sc(C(=O)OC)cc(=O)n1CC=C
48) O=C1/C(=C/c2cccs2)COc2ccccc21

Screen / compound no.,41,42,43,44,45,46,47,48
Calb FLC,-5,0,-8,13,1,8,7,-17
MLL AF4-AF9 inh,/,4.5,-0.3,0.3,0.5,/,/,-3.0
Vif A3G,20%,/,25%,-7%,/,1%,0%,5%
Ecoli rRNA inh,/,-4,-13,7,-30,/,/,-41
Ecoli rRNA inh OD600,/,-12,-7,-1,-54,/,/,-51
Ecoli rRNA inh RFP,/,-0.4,-1.2,-0.2,-7.8,/,/,-12
RanGTP-Impb inh,/,1.2,-0.9,2.5,-0.6,?,1.1,-3.2
Bfl-1 A1 inh,0.6,0.5,0.4,-0.1,-2.1,1.8,0.0,-3.9
Beta apoptosis,4,0,0,-2,9,-2,0,-3
T cruzi inh,11,26,13,23,-9,-2,-14,-10

49) COc1ccc(O)c(C(=O)c2cnc3c(c2)CN(C)C(=O)N3)c1
50) CCOC(=O)c1c(S(=O)(=O)NCC(=O)Nc2cccc(C)c2C)c(C)n(C)c1C
51) C=CCN1C(=O)C(CC(=O)NCC)SC1=Nc1ccccc1CC (stereo unspecified)
52) C#CC[N+](C)(C)CCCCCCCCC
53) CCc1cc(=O)oc2cc(O[C@@H]3O[C@H](CO)[C@@H](O)[C@H](O)[C@H]3O)c(Cl)cc12
54) N#Cc1ccc(OCc2noc(-c3ccsc3)n2)cc1

Screen / compound no.,49,50,51,52,53,54
Calb FLC,12,13,1,-6,2,-2
MLL AF4-AF9 inh,-1.4,-0.9,-4.1,-2.1,-2.6,-0.3
Vif A3G,-5%,4%,/,/,-11%,/
Ecoli rRNA inh,6,-6,3,8,-1,8
Ecoli rRNA inh OD600,-3,0,6,3,2,8
Ecoli rRNA inh RFP,1.7,-3.4,9.0,2.6,0.4,0.1
RanGTP-Impb inh,-2.4,1.1,1.1,2.9,-2.2,0.4
Bfl-1 A1 inh,-0.3,0.1,0.4,-0.1,0.1,0.6
Beta apoptosis,3,0,-3,0,/,-4
T cruzi inh,-5,10,2,5,-3,-17

An excerpt, so the mix of outcomes need not match the whole.
